CtBP-E1A inh – qHTS Assay for Inhibitors of the CtBP/E1A Interaction; CtBP / adenovirus E1A interaction (AlphaScreen); AlphaScreen GST-E1A/His-CtBP binding, 1536-well; active compounds read low; control for the full effect not named in the record; activity change, % (test concentration not listed); 340,000 compounds, 0.49% hits; AID 651724, 2012; in the data active means activity change below about -65%; inconclusive means about -30% to -65%; inactive means above about -30%; note: % is set by controls: 0 for no effect and ±100 for the full control effect
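In 5 uL wells, 23 nL compound meets equimolar GST-E1A and His-CtBP (5X stock 125 nM each) for 2 h, 37 °C. Beads (5X, 50 ug/mL) then 1 h, 37 °C, dark.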
ClpP mod – qHTS Assay for Activators of ClpP. 340,000 compounds, 1.9% hits. Potency, µM (highest dose often 57.5 µM), for inactives: at the highest dose activity change, negative = active. purified B. subtilis ClpP, FRET peptide cleavage, 20 min. AID 651965, 2013; active = well fitted falling curve with a large enough effect; inconclusive = small, poorly fitted or top-dose-only effect; inactive = no such curve, though single readings can be large or run the other way; note: potency is the fitted concentration of half-maximal effect; the source files actives as falling curves though it sought activators and does not explain the sign; nearly all actives have a fitted effect of over 65% in size; many hits overshoot -100%
Target sequence (P80244 whole entry, looked up): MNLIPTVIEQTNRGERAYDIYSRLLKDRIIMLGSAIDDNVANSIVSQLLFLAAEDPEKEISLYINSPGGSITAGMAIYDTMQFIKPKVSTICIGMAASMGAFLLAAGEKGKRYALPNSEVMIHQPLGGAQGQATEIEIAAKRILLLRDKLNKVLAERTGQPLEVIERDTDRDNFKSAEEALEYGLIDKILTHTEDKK
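FRET quenching reversal measured ClpP activation: 10 microg/mL B. subtilis ClpP at pH 8 with the FRET-FV decapeptide, read at 430 nm after 320 nm excitation. The 20-min minus 0-min signal was scaled between DMSO/no-enzyme wells and ADEP (5.8 microM final).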
gsp ag – qHTS for Agonist of gsp, the Etiologic Mutation Responsible for Fibrous Dysplasia/McCune-Albright Syndrome: qHTS; gsp mutant cells, cAMP HTRF, 30 min; control for the full effect not named in the record; Potency, µM (doses to about 76.9 µM), for inactives: at the top dose activation (cAMP increase), most hits filed as activators; 340,000 compounds, 0.13% hits; AID 624287, 2012; active = well fitted activation curve with a large enough effect; inconclusive = small, poorly fitted or top-dose-only effect, or another doubt; inactive = no such curve, though single readings can be large or run the other way; cell line not stated here;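 note: phosphodiesterase inhibitor Ro 20-1724 added with compounds to block cAMP breakdown; potency is the fitted concentration of half-maximal effect; nearly all actives have a fitted effect of over 60% in size; about a fifth of the inactives were tested at one dose only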
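Cells stably selected in G418 were plated at 2000/well, grown 16-24 hr, then given compounds in DMSO with the PDE inhibitor […] (300 uM solution added) for 30 min at 37C; cAMP was read by HTRF.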
TRPV1 potentiator – HTS Assay for Compounds that Act as Potentiators of the Vanilloid Receptor 1; Transient receptor potential cation channel subfamily V member 1 (Homo sapiens), Q8NER1; TRPV1-expressing cells, Fluo-8 calcium influx, capsaicin EC20 potentiation; host cell line not named in the record; control for the full effect not named in the record; potentiation, % at 8.33 µM; 320,000 compounds, 0.02% hits; active means potentiation above 80%; inconclusive means 30% to 80%; inactive means below 30%; note: 0% is about no effect
Target sequence (Q8NER1 whole entry, looked up): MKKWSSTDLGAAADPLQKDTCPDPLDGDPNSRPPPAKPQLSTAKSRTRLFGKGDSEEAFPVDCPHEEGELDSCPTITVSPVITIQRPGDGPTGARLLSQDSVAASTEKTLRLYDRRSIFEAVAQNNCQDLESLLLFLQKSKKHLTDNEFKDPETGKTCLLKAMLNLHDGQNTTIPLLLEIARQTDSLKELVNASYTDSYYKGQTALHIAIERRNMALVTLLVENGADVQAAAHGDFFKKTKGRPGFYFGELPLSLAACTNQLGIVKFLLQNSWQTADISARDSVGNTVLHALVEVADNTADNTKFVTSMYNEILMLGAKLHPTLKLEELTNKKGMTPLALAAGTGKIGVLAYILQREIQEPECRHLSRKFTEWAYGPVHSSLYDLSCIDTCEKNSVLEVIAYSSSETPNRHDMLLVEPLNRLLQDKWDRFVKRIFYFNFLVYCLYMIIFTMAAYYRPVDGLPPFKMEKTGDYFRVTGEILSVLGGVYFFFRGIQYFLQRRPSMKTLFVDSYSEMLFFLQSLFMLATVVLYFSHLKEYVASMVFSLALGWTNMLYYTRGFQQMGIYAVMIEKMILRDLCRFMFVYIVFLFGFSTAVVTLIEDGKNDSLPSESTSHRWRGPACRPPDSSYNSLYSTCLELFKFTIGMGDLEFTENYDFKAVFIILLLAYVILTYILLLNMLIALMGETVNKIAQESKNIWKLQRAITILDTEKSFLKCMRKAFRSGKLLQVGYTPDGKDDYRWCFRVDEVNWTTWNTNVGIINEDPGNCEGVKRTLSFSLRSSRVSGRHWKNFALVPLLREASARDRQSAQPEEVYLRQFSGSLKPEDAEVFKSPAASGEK
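TRPV1-expressing cells were cultured overnight at 35.5C and loaded with Fluo-8 calcium dye for 40 to 90 min at room temperature. After a 10 s baseline, compound was added and calcium influx was read kinetically for 3 min (ex 480/em 520 nm).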
Sfp inh – qHTS Assay for Inhibitors of Bacillus subtilis Sfp phosphopantetheinyl transferase (PPTase); Biochemical Sfp PPTase activity, qHTS; 310,000 compounds, 3.5% hits; AID 1490, 2009; 4'-phosphopantetheinyl transferase ffp (Bacillus subtilis), Q9F4F7; Potency, µM, inactives show max response, negative = inhibition, usual class: inhibitors; active = well fitted inhibition curve with a large enough effect; inconclusive = small, poorly fitted or top-dose-only effect, or another doubt; inactive = no such curve, though single readings can be large or run the other way;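 note: the enzyme is Sfp with the accession as filed and its product quenches rhodamine fluorescence; potency is the fitted concentration of half-maximal effect; 0% = enzyme reaction without inhibitor and -100% = no enzyme wells; top concentration of the series not given in the record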
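Fluorescence-quenching assay: 15 nM Sfp-PPTase preincubated 15 min at room temperature with compound, then 5 uM rhodamine-CoA and 12.5 uM BHQ-2-labelled YbbR peptide added. Fluorescence (ex 525/em 598 nm) read at start and after 30 min; difference gives rate.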
gsp antagonist – qHTS for Antagonists of gsp, the Etiologic Mutation Responsible for Fibrous Dysplasia/McCune-Albright Syndrome: qHTS; gsp-mutant cells, cAMP HTRF, 30 min; control for the full effect not named in the record; Potency, µM (series often up to 76.9 µM), inactives show at the highest dose activity change, negative = inhibition, usual class: inhibitors; 340,000 compounds, 0.4% hits; AID 624288, 2012; active = falling curve of any shape with a large fitted effect; inconclusive = falling curve, mostly with a smaller effect; inactive = flat or rising curve; cell line not stated here;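 note: intracellular cAMP measured with PDE inhibitor Ro 20-1724 present during compound exposure; potency is the fitted concentration of half-maximal effect; % is set by controls: 0 for no effect and ±100 for the full control effect; nearly all actives have a fitted effect of over 65% in size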
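Measurement of cellular cAMP by homogeneous time-resolved fluorescence following a 30 min compound exposure at 37C. The PDE inhibitor […] was present throughout; the assay buffer was DPBS with 0.05% BSA and 0.005% Tween 20.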
Menin-MLL FL inh – qHTS Assay for Inhibitors Targeting the Menin-MLL Interaction in MLL Related Leukemias: Competition With Fluorescein Labeled MLL-derived Peptide | Fluorescence polarization, fluorescein-MLL peptide displacement from menin | FP activity change, % at 61.4 µM | 290,000 tested, under 10 active | AID 1766, 2009; inconclusive = falling polarisation curve, or a change in total fluorescence; inactive = total fluorescence flat and polarisation flat or rising; no compound was filed as active; the % refers to the polarisation; negative = inhibition;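 note: % of control where 0% means no effect; inhibitors lower the polarisation; unlabelled MLL peptide was the positive control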
An asterisk follows results filed as active; ? = inconclusive; / = not tested or not shown; [ ] = remark or other dose.

SMILES	CtBP-E1A inh	ClpP mod	gsp ag	TRPV1 potentiator	Sfp inh	gsp antagonist	Menin-MLL FL inh
COc1ccc(-c2coc3cc4oc(=O)c(CC(=O)O)c(C)c4cc23)cc1	4	0.3%	-2%	-14	-6%	?	2.5
COc1cc(/C=C2/SC(=S)N(Cc3ccccc3)C2=O)ccc1O	?	/	-108%[inhibitor]	?	-7%	5%	?
Cc1ccc(CC(NC(=O)c2ccccc2)C(=O)NC(Cc2ccccc2)C(=O)O)cc1 (configuration not stated)	-1	/	-4%[15.4 µM]	9	20%	2%	0.0
COc1ccc(CN2CC[C@@H](N3CCOCC3)[C@H](O)C2)cc1F	0	0.2%	6%[15.4 µM]	0	17%	5%	0.0
COc1ccc([C@H]2CC(=O)C=C(c3ccc(C)c4ccccc34)C2)cc1	-26	-5.0%	?	5	/	7%	/
O=C(O)c1cc(=O)c2c3nc4ccccc4oc-3cc(=O)c2[nH]1	/	-3.4%	/	/	45µM*	/	9.4
CCOC(=O)C(/C=C(\C#N)C(=O)OCC)=C(/N)N1CCN(c2ccc(Cl)cc2)CC1	-15	1.3%	10%	10	0%	-7%	0.7
CCOC(=O)N1CCN(C(=O)c2ccc(OCC)c(OCC)c2)CC1	1	1.3%	1%	20	-6%	-6%[15.4 µM]	0.3
Cc1ccc(NC(=O)CS(=O)CC(=O)N(CC(=O)NC2CCCC2)c2cccc(C)c2C)cc1 (configuration not stated)	11	0.3%	-53%[inhibitor]	25	7%	-3%	-1.2
Cc1ccc(S(=O)(=O)Nc2ccc(S(=O)(=O)NCC3CCCO3)cc2)cc1 (configuration not stated)	1	/	-18%	-2	17%	-8%	-0.6
O=S1(=O)CCN(Cc2ccc(Cl)c(Cl)c2)CC1	7	-0.8%	1%	10	12%	9%	-2.2
COC(=O)c1ccc(CNC(=O)c2ccc(NS(=O)(=O)c3ccc4[nH]c(=O)[nH]c4c3)cc2)cc1	-2	-0.4%	28%	1	/	9%	/
Nc1ccc(C(=O)N/N=C/c2cccc(Oc3ccccc3)c2)cc1	-2	-4.7%	-12%	3	1%	-19%	-2.2
Cc1cccc(C)c1OCC(=O)NNC(=O)c1ccoc1C	0	-1.7%	8%	23	11%	6%	4.4
O=C1C2C3C=CC(C3=C3CCCCC3)C2C(=O)N1Cc1ccccc1 (configuration not stated)	7	0.4%	-3%	-16	-29%	-11%	-0.1
COc1ccc(C(=O)N2CCN(S(=O)(=O)c3ccc4c(c3)OCCO4)CC2)cc1	1	0.1%	-28%	/	/	/	/
c1ccc(CCc2cc3ccccc3[nH]2)cc1	3	0.2%	?	6	/	-2%	/
Cc1ccc([N+](=O)[O-])cc1NC(=O)c1ccc2c(c1)OCO2	1	/	-12%[15.4 µM]	3	9%	-15%	-0.7
O=CNn1cnc2c(oc3nc(-c4ccccc4)cc(-c4ccco4)c32)c1=O	0	/	1%[15.4 µM]	9	?	/	-4.7
CC(C)=CCc1c([C@@H]2CCc3ccc(O)cc3O2)cc2c(c1O)OC(C)(C)C=C2	1	-2.5%	/	/	/	-2%	/
CC(=O)c1ccc(C(=O)Nc2ccc(N3CCOCC3)cc2)cc1	2	-0.8%	26%	8	-7%	-3%	-0.1
C=CCNC(=S)N1CCN(CCNC2=CC(=O)CC(C)(C)C2)CC1	10	0.2%	2%[15.4 µM]	-1	22%	14%	1.4
Cc1nc(C)c(/C(O)=C/c2nc3ccccc3oc2=O)s1	-7	1.2%	-10%	9	?	4%	8.2
COc1ccc(-c2nnc3ccc(SCC(=O)N4CCCCC4)nn23)cc1OC	-15	0.8%	?	3	18%	?	1.4
c1ccc(CCNc2nc(-c3ccccn3)nc3ccccc23)cc1	?	/	7%	-16	-12%	-13%	1.3
NC(=O)C1CCN(C(=O)c2ccc(Cl)c(S(=O)(=O)N3CCCCCC3)c2)CC1	3	-0.2%	11%	/	/	0%	/
CCCCn1c(N)c(N(CCOC)C(=O)c2ccc(-n3c(C)ccc3C)cc2)c(=O)[nH]c1=O	0	/	-20%[15.4 µM]	3	/	6%	/
CCN(CC)S(=O)(=O)c1ccc(C)c(NC(=O)Cn2c(=O)cnc3ccccc32)c1	-1	/	26%[15.4 µM]	30	-11%	9%	4.8
O=C(CCc1ccccc1)NC(=S)Nc1ccc(S(=O)(=O)N2CCOCC2)cc1	-17	10µM*	-8%	0	20%	4%	1.3
CC1CCN(S(=O)(=O)c2ccc3c(c2)c(=O)c(C(=O)N2CCOCC2)cn3C)CC1	/	-3.6%	?	-10	4%	-3%	/
O=C(O)CCCn1cc(NC(=O)COc2ccccc2)cn1	-5	-0.8%	7%	11	-2%	3%	3.3
O=C(C1Cc2ccccc2CN1S(=O)(=O)c1ccc(F)cc1)N1CCCCC1 (configuration not stated)	-5	-0.6%	3%	-8	14%	-16%	2.0
CCOC(=O)c1sc(C(=O)OCC)c(OCCO)c1OCCO	-4	-30%	13%	2	13%	4%	2.6
CCN1CCN(C(=O)Nc2ccccc2OC)CC1	2	-16%	-28%	3	?	2%	-3.6
CSc1ccccc1NC(=O)COc1ccc(Cl)cc1Cl	57	-2.9%	-40%[inhibitor]	13	0%	-9%	2.2
O=C1/C(=C/c2cccnc2)SC(=S)N1Nc1ccccc1	3	/	-6%[15.4 µM]	5	-25%	4%	3.7
CC(C)(C)SCCNC(=O)COc1ccc(Cl)cc1	9	0.3%	21%	-15	5%	-1%	-2.2
Cn1c(CC(=O)Nc2ccccc2)cc2ccccc21	-8	-4.3%	22%	-5	17%	2%	-1.7
Cc1ccc(Cc2cnc(NC(=O)C3=NCCN3)s2)cc1	/	/	/	3	-18%	/	-2.8
Cc1nc2sc3c(c2c(=O)n1NC(=O)CCBr)CCCC3	-5	1.0%	18%	2	-16%	4%	0.2
Cc1ccsc1C(=O)NC1CCCCC1C (configuration not stated)	/	-1.1%	-14%	11	/	1%	/
O=C(Nc1cccc(F)c1)c1ccc(S(=O)(=O)N2CCCCC2)cc1	1	-2.8%	-31%[inhibitor]	-5	13%	-20%	-0.9
Cc1noc(C)c1NC(=O)N(C)C[C@@H]1Oc2ccc(NS(=O)(=O)c3c(C)noc3C)cc2C(=O)N([C@H](C)CO)C[C@H]1C	6	-13%	/	/	/	-1%	/
CCC(C)Nc1nc(-c2cccc(OC)c2O)nc2ccccc12 (configuration not stated)	-11	0.1%	-9%	-23	12%	?	4.4
CCOC(=O)c1c(NC(=O)COc2cccc3c2CCN(CC)C3=O)sc2c1CCC2	-2	-4.1%	?	-19	-4%	-29%	10
O=C(Nc1cccc([N+](=O)[O-])c1)c1ccc2snnc2c1	2	-1.7%	-3%	-10	-11%	3%	1.1
O=C(CN1CCN(S(=O)(=O)c2ccc(Br)cc2)CC1)Nc1ccc2c(c1)OCO2	-8	-1.3%	-45%[inhibitor]	-4	-7%	-10%	0.7
O=C(CSc1nnc(-c2ccncc2)o1)NC1CCCCC1	/	-7.1%	4%	2	12%	8%	0.8
COc1ccc(C(=O)Nc2ccccc2N2CCOCC2)cc1Br	4	1.7%	-42%[inhibitor]	-16	4%	-8%	2.2
Cc1ccc(-c2csc(/C(C#N)=C(\O)CN3CCN(C(=O)c4ccco4)CC3)n2)cc1	-2	1.1%	-2%	20	15%	-3%	4.3
CCOC(=O)Cn1ccc(NC(=O)COc2ccc(F)cc2F)n1	0	-2.1%	?	3	8%	2%	/
CCOc1ccccc1C(=O)Oc1cc(C)[nH]c(=O)c1[N+](=O)[O-]	4	-0.8%	-2%	-11	1%	4%	-0.8
NC(=O)C1CCN(C(=O)C2CC(=O)N(Cc3ccccc3)C2)CC1 (configuration not stated)	1	-2.4%	2%	5	/	8%	/
CCc1ccccc1NS(=O)(=O)c1ccc2[nH]cc(C(=O)NCc3ccco3)c(=O)c2c1	9	-0.7%	-41%[inhibitor]	3	27%	1%	2.0
Cc1[nH]c2ccc(C(=O)N3CCCC3)cc2c1C	/	-0.4%	-4%	1	2%	6%	-1.8
C=CCn1c(SCC(=O)NCCOC)nc2scc(-c3ccco3)c2c1=O	-3	1.5%	4%	4	10µM*	-4%	9.6
O=C(c1cccc(Cl)c1)N1CCN(c2ccccn2)CC1	3	2.9%	13%	-17	9%	6%	-1.7
CCOc1ccccc1CN1CCNC(=O)C1CC(=O)N(C)Cc1nonc1C (configuration not stated)	-15	-1.8%	-56%[15.4 µM]	-11	6%	4%	/
O=C(CSc1n[nH]c(-c2cccs2)n1)N1CCN(S(=O)(=O)c2ccc3ccccc3c2)CC1	-16	-13%	9%	6	-2%	-16%	-0.5
Cc1cccc(C(=O)N2CCC(=O)N(C(COCc3cccc(Cl)c3)Cc3ccccc3)CC2)c1 (configuration not stated)	-3	0.7%	27%	-16	1%	-11%	6.3

Additional structures
SMILES	CtBP-E1A inh	ClpP mod	gsp ag	TRPV1 potentiator	Sfp inh	gsp antagonist	Menin-MLL FL inh
O=C(COC(=O)c1ccccc1Nc1ccccc1)NCc1ccco1	-1	-5.5%	13%	0	6%	0%	2.2
CCC(Sc1nc2c(cnn2-c2ccccc2)c(=O)[nH]1)C(=O)OC (configuration not stated)	0	1.9%	18%	-11	24%	16%	3.3
C=CCn1c(SCC(=O)c2ccc(CNC(C)=O)o2)nc2ccccc2c1=O	10	-3.9%	-19%	0	-21%	3%	-1.5
COc1ccc(CN(C)C(=O)COc2cccc(-n3cnnn3)c2)cc1OC	1	0.4%	-36%	/	/	5%	/
Cc1onc(-c2ccc(Cl)cc2)c1-c1ccnc(SCC(=O)Nc2cc(Cl)cc(Cl)c2)n1	-4	/	?	8	13%	?	6.4

Screening results (PubChem BioAssay)
